# Screens as filed in PubChem BioAssay.
# gsp antagonist – gsp mutant antagonism. AID 624288. Potency, µM (top dose mostly 76.9 µM), for the others: at the highest dose activity change, negative = inhibition, usual class: inhibitors. gsp-mutant cells, cAMP HTRF, 30 min; control for the full effect not named in the record. hit rate 0.4% among 340,000; active = falling curve of any shape with a large fitted effect; inconclusive = falling curve, mostly with a smaller effect; inactive = flat or rising curve; cell line not stated here;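 further: intracellular cAMP measured with PDE inhibitor Ro 20-1724 present during compound exposure; potency means the concentration at half of the fitted maximal effect; on the % scale 0 is the no-effect control and ±100 the full control effect; nearly all actives have a fitted effect of over 65% in size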
#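 Measurement of cellular cAMP by homogeneous time-resolved fluorescence following a 30 min compound exposure at 37C. The PDE inhibitor […] was present throughout; the assay buffer was DPBS with 0.05% BSA and 0.005% Tween 20.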
# D2 ag – activates the human D2 dopamine receptor; AID 624465; P14416; hit rate 0.084% among 360,000; DiscoveRx PathHunter D2 beta-arrestin, luminescence, 90 min; 100% = 57 uM dopamine signal; activation, % (no concentration beside the values); in the data active = activation above about 40%; inconclusive = about 15% to 40%; inactive = below about 15%; further: compound concentration not given in the record; the text of the record calls up to 30% inactive
# Target sequence (P14416 whole entry, looked up): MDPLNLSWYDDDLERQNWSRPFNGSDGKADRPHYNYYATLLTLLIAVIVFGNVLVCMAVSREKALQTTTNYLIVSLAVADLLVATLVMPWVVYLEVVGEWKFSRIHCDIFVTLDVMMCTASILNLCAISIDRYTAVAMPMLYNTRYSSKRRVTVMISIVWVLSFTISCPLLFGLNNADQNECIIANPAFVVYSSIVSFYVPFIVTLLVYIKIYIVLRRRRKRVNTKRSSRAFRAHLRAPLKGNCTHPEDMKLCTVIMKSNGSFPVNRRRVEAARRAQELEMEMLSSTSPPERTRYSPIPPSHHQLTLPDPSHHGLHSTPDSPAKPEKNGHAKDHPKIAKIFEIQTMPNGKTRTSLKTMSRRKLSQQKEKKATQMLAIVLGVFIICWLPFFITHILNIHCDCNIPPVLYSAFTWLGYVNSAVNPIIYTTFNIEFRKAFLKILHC
#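 Agonist mode: compounds alone added to overnight-plated D2 PathHunter cells for 90 min at 37 C, with 57 uM final dopamine (EC100) defining full response. Beta-arrestin recruitment detected by chemiluminescent reagent, read after 1 h at ambient temperature.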
# gsp ag – gsp mutant agonism | gsp mutant cells, cAMP HTRF, 30 min; control for the full effect not named in the record | Potency, µM (titrated, usually from 76.9 µM), inactives show at the top dose activation (cAMP increase), most hits filed as activators | hit rate 0.13% among 340,000 | AID 624287; active = well fitted activation curve with a large enough effect; inconclusive = small, poorly fitted or top-dose-only effect, or another doubt; inactive = no such curve, though single readings can be large or run the other way; cell line not stated here;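 further: phosphodiesterase inhibitor Ro 20-1724 added with compounds to block cAMP breakdown; potency means the concentration at half of the fitted maximal effect; nearly all actives have a fitted effect of over 60% in size; about a fifth of the inactives were tested at one dose only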
#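 Cells stably selected in G418 were plated at 2000/well, grown 16-24 hr, then given compounds in DMSO with the PDE inhibitor […] (300 uM solution added) for 30 min at 37C; cAMP was read by HTRF.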
# Six1-Eya2 blk – Six1/Eya2 interaction inhibition; Q15475+O00167; AlphaScreen GST-Six1/His-Eya2 binding, biochemical; stronger effect = lower value; control for the full effect not named in the record; activity change, % (no concentration beside the values); hit rate 0.56% among 360,000; AID 651725; in the data active = activity change below about -65%; inconclusive = about -30% to -65%; inactive = above about -30%; further: on the % scale 0 is the no-effect control and ±100 the full control effect; compound concentration not given in the record
#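 Six1/Eya2 binding was read as AlphaScreen signal after compounds were pinned into GST-Six1 plus His-tagged Eya2 (5X stock 250/500 nM) in pH 8.0 Tris/NaCl/TCEP buffer, beads added, then incubated 1 h, 37 C, dark.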
# D2 potentiator – potentiates the human D2 dopamine receptor allosterically; hit rate 0.23% among 360,000; DiscoveRx D2 beta-arrestin cells, luminescence, 90 min; 100% = 57 uM dopamine signal; P14416; potentiation, % (no concentration beside the values); active = potentiation of 50% or more; inconclusive = 30% to 50%; inactive = 30% or less;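 further: compound concentration not given in the record; tested on top of an EC20 dose of dopamine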
#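 PathHunter D2 cells, attached overnight at 37 deg C, received compound in DMSO plus dopamine at EC20 (50 nM final) for 90 min at 37 deg C. Beta-arrestin recruitment was read as luminescence after 1 h with detection reagent at ambient temperature.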
# CtBP-E1A inh – CtBP/E1A binding inhibition; AlphaScreen GST-E1A/His-CtBP binding, 1536-well; stronger effect = lower value; control for the full effect not named in the record; AID 651724; hit rate 0.49% among 340,000; activity change, % (test concentration not listed); in the data active means activity change below about -65%; inconclusive means about -30% to -65%; inactive means above about -30%; further: on the % scale 0 is the no-effect control and ±100 the full control effect; compound concentration not given in the record
#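 Homogeneous bead-based format: GST-tagged E1A captured on glutathione donor beads, His-tagged CtBP on nickel acceptor beads; compounds precede bead addition by 2 h at 37 °C.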
# Numbers without * were called inactive; ? = inconclusive; nt = no result given; [ ] = dose if it differs, or a comment. This is a random part of the collection (roughly 1.4% active in at least one column).
gsp ag | CtBP-E1A inh | D2 ag | Six1-Eya2 blk | D2 potentiator | gsp antagonist | smiles
22% | -2 | 3.2 | -5 | -1 | -4% | COc1ccccc1NC(=O)Cn1c2ccc(F)cc2c2nc3n(c(=O)c21)CCS3
1% | -21 | 2.7 | 5 | -20 | -9% | COc1ccc(C2NC(C(=O)O)Cc3c2[nH]c2ccccc32)cc1CN1CCN(c2ccc(F)cc2)CC1 (configuration not stated)
-29% | -13 | -1.7 | 6 | -3 | -16% | C=CCN(c1ccccc1Cl)S(=O)(=O)c1cccc(C(=O)NCCc2ccc(OC)cc2)c1
-72%[inhibitor] | 7 | -1.1 | 2 | 1 | -13% | C=CCNC(=O)C1CC1(c1ccccc1)c1ccccc1 (configuration not stated)
nt | -20 | -2.1 | ? | -30 | -15% | Fc1ccc(C(c2ccc(F)cc2)N2CCN(C/C=C/c3ccccc3)CC2)cc1
-38%[inhibitor] | 0 | -3.0 | 29 | -25 | 24% | C=CCn1c(SCC(=O)NC2CCCCC2)nnc1-c1sc(N)nc1C
-26% | -10 | -9.5 | -4 | -8 | -15% | CCN1CCN(c2cc3c(cc2F)c(=O)c(S(=O)(=O)c2ccccc2)cn3C)CC1
0% | 5 | 0.7 | 2 | -7 | -9% | O=C(COc1ccc(F)cc1)Nc1ccccc1N1CCOCC1
-18% | -12 | -2.8 | -7 | -7 | 5% | COc1ccc2[nH]cc(C(=O)CN(C)CCc3ccc(OC)c(OC)c3)c2c1
nt | -1 | -1.4 | 0 | -12 | nt | COc1ccc(Br)c(C(=O)N2CCCC2(C)C(=O)NCC(C)C)c1 (configuration not stated)
4% | 2 | 1.5 | 1 | 3 | -2% | COC(=O)c1cc(S(=O)(=O)NCc2cccc(Br)c2)c[nH]1
-1%[15.4 µM] | 10 | -0.6 | -9 | -15 | -12% | O=C(Nc1ccc2ccccc2c1)/C(=C\c1ccc2c(c1)OCO2)NC(=O)c1ccco1
-13% | 1 | -1.1 | -7 | 1 | -4% | O=C1N[C@@H](Cc2ccccc2)C(=O)N2[C@@H]1C[C@@]1(Br)c3ccccc3N(S(=O)(=O)c3ccccc3)[C@@H]21
10% | 8 | 0.3 | 1 | -15 | 2% | O=C(O)c1cccc(NC(=O)c2cccc(S(=O)(=O)N3CCCCC3)c2)c1
-39%[inhibitor] | 6 | 1.5 | -2 | -6 | -3% | CS(=O)(=O)N1N=C(c2ccccc2)CC1c1cccs1 (configuration not stated)
-54%[inhibitor] | 5 | -1.0 | 6 | -3 | -1% | CCN(CC)C(=O)CSc1nnc(-c2ccc(S(=O)(=O)N3CCOCC3)cc2)n1C
-7%[15.4 µM] | 1 | -0.1 | 16 | 2 | -1% | CCOc1ccc(S(=O)(=O)N2CCCC(C(=O)NCc3ccccn3)C2)cc1 (configuration not stated)
8% | nt | -3.9 | -6 | -5 | -3% | COc1ccc(CC(=O)Nc2cc(S(=O)(=O)N3CCOCC3)ccc2N2CCOCC2)cc1OC
? | 7 | 0.5 | 9 | -15 | 40µM* | CC(C)c1ccc(NC(=O)c2cnn(-c3ccccc3)c2NC(=O)c2ccco2)cc1
4% | -10 | 3.2 | -6 | 3 | -11% | COc1cc(C(=O)Nc2ccc3nc(N4CCOCC4)sc3c2)cc(OC)c1OC

# Arranged by the number under gsp antagonist (low to high): three of the compounds above
structure,gsp ag,CtBP-E1A inh,D2 ag,Six1-Eya2 blk,D2 potentiator,gsp antagonist
C=CCNC(=O)C1CC1(c1ccccc1)c1ccccc1 (configuration not stated),-72%[inhibitor],7,-1.1,2,1,-13%
COc1ccc2[nH]cc(C(=O)CN(C)CCc3ccc(OC)c(OC)c3)c2c1,-18%,-12,-2.8,-7,-7,5%
C=CCn1c(SCC(=O)NC2CCCCC2)nnc1-c1sc(N)nc1C,-38%[inhibitor],0,-3.0,29,-25,24%

# Back to the main list; the three compounds before the break are reprinted first.
gsp ag | CtBP-E1A inh | D2 ag | Six1-Eya2 blk | D2 potentiator | gsp antagonist | smiles
8% | nt | -3.9 | -6 | -5 | -3% | COc1ccc(CC(=O)Nc2cc(S(=O)(=O)N3CCOCC3)ccc2N2CCOCC2)cc1OC
? | 7 | 0.5 | 9 | -15 | 40µM* | CC(C)c1ccc(NC(=O)c2cnn(-c3ccccc3)c2NC(=O)c2ccco2)cc1
4% | -10 | 3.2 | -6 | 3 | -11% | COc1cc(C(=O)Nc2ccc3nc(N4CCOCC4)sc3c2)cc(OC)c1OC
nt | 4 | -1.4 | 5 | 1 | 7% | CC[C@]12C(=O)N(C)C[C@H]([C@@H]3C(=O)N(C)C(=O)[C@@H]31)N2C(=O)c1ccc(C(C)(C)C)cc1
19% | -27 | -2.0 | -3 | -5 | 8% | COc1ccc(-c2c(-c3cc(OC)cc(OC)c3)n(C)c3ccc(-c4ccc(OC)cc4F)cc23)cc1
? | -1 | -2.1 | -4 | -8 | 6% | COc1ccccc1N1CCN(C(c2cccs2)C(C)NC(=O)c2cccnc2)CC1 (configuration not stated)
-8%[15.4 µM] | -5 | -3.3 | -2 | -1 | 8% | CSc1nnc([C@@H]2CCCN2C(=O)OC(C)(C)C)o1
-5% | 4 | -1.7 | -1 | -3 | nt | CN1CCN(C2CN(Cc3ccc([N+](=O)[O-])cc3)S(=O)(=O)C2)CC1 (configuration not stated)
7% | 6 | 1.1 | 0 | -6 | 3% | C/C(CC(=O)Nc1cccc2c1CCCC2)=N\NC(=O)c1cccc2ccccc12
? | -3 | 4.9 | -10 | 10 | 18% | NC(=O)c1ccc(Cn2c(C(=O)c3cc(Cl)c(N)c(Cl)c3)c3ccccc3[n+]2[O-])cc1
-1% | 21 | -5.3 | 5 | -5 | -16% | Cc1ccc(C(=O)N2CCCN(c3nc4cc5c(cc4cc3C#N)OCO5)CC2)cc1
6% | 3 | -6.3 | 17 | -24 | -26% | Cc1ccc(S(=O)(=O)NCC(c2ccco2)N2CCc3ccccc3C2)cc1 (configuration not stated)
2% | 3 | -5.8 | -8 | -5 | ? | CN(C)c1ccc(/C=C/C(=O)c2ccc(C(C)(C)C)cc2)cc1[N+](=O)[O-]
-64%[inhibitor] | 6 | -4.1 | 0 | -9 | -2% | Cc1sc(=NC(=O)c2ccco2)n(C)c1-c1ccc(Cl)cc1
2%[15.4 µM] | 10 | -3.6 | -7 | -32 | 0% | CC(=O)CSc1nnc(C(F)(F)F)n1C
-4%[15.4 µM] | 5 | -6.3 | 25 | 0 | 8% | COc1ccc(CCNC(=O)Cc2ccc([N+](=O)[O-])cc2)cc1OC
9% | -4 | -2.0 | -5 | -6 | nt | C[C@H](NC(=O)c1ccccc1)C(=O)OCC(=O)Nc1ccc(Cl)cn1
? | nt | -1.9 | 4 | -4 | 1% | CCOc1ccccc1NC(=O)COC(=O)c1cnc(C)cn1
-37%[inhibitor] | 6 | 2.5 | 6 | 8 | 7% | O=S(=O)(CC=CCS(=O)(=O)c1ccccc1)c1ccccc1
0% | nt | 1.1 | -3 | -5 | -2% | CC(C)C(=O)Nc1cc(S(=O)(=O)Nc2cccc(Cl)c2)ccc1Cl
-8% | -14 | -3.1 | -5 | -7 | ? | O=CN(Cc1ccccc1)c1cc([N+](=O)[O-])ccc1OCc1ccccc1
11% | 1 | -0.1 | 0 | -4 | -8% | Cc1c(N2C(=O)CS/C2=N\N=C\c2ccc(Br)cc2)c(=O)n(-c2ccccc2)n1C
-13% | 12 | -2.6 | 13 | -7 | 9% | COc1ccc(C(=O)NCc2nnc(SCC(=O)N3CCc4ccccc43)n2Cc2ccccc2)cc1
? | 1 | 3.5 | 4 | -5 | 3% | Cc1c(C(=O)N2CC[C@@H](N3CCC(O)CC3)[C@H](O)C2)[nH]c2ccc(Cl)cc12
33%[15.4 µM] | 7 | 4.9 | 5 | -12 | -8% | N#C/C(=C\c1cccs1)C(=O)N1CCOCC1
11µM* | 0 | -2.4 | 8 | -4 | 17% | CCCCOc1ccc(/C(O)=C2/C(=O)C(=O)N(Cc3cccnc3)C2c2ccncc2)c(C)c1 (configuration not stated)
20% | nt | -5.6 | 13 | -7 | 5% | O=C(NNC1OC(CO)C(O)C(O)C1O)c1cccc(Br)c1 (configuration not stated)
11% | 6 | 3.1 | 5 | 7 | 3% | O=C(Nc1ccc(C(=O)N2CCCCC2)cc1)c1ccccc1Br
-7% | -20 | -0.4 | -19 | -12 | -4% | Cc1cc2cc(CN(Cc3ccco3)C(=S)NCC3CCCO3)c(=O)[nH]c2cc1C (configuration not stated)
-76%[inhibitor] | 7 | 0.3 | 4 | 12 | 6% | COC(=O)c1ccc(/C=N/NC(=O)CC(=O)NC(C)C)cc1
-12% | -15 | -2.4 | -13 | -7 | 12% | COc1ccc(-c2[nH]nc3oc(=O)cc(C)c23)cc1
-2% | -7 | -5.6 | -13 | -3 | -20% | CCOC(=O)c1c(-n2c(C)cc(C=O)c2C)sc2c1CCCC2
-48%[inhibitor] | 6 | 0.0 | -1 | 4 | 6% | O=C(OCn1nnc2ccccc2c1=O)c1cccs1
24% | -13 | 12 | 0 | -5 | -17% | Cc1nn(Cc2ccc(Br)cc2)c(C)c1NC(=O)c1nn(C)cc1Cl
0% | -12 | -4.2 | -8 | -5 | -9% | O=C(O)c1ccccc1Nc1ccnc(Cl)n1
-3%[15.4 µM] | -22 | -2.7 | -14 | -65 | -15% | O=C(c1ccc(N2CCCCC2)c([N+](=O)[O-])c1)N1CCN(S(=O)(=O)c2ccccc2)CC1
-7% | 1 | -0.6 | 6 | -14 | 10% | CCOC(=O)N1N=C(C)CC1(O)c1ccccc1 (configuration not stated)
-9% | 3 | -0.7 | 4 | -4 | 6% | O=C(COc1ccc(S(=O)(=O)NC2CCCCC2)cc1)NCc1cccnc1
4% | -7 | 1.6 | 4 | 14 | -4% | Cc1nn(-c2ccccc2)c(C)c1P(=O)(c1ccccc1)N(C)C (configuration not stated)
-17% | 11 | 1.5 | 8 | -3 | 2% | Cc1c(C(=O)Nc2ccc(Cl)cc2)c2ccccn2c1C(=O)c1ccc(F)cc1

# Reprinted at random: six records from the list, in no set order.
gsp ag | CtBP-E1A inh | D2 ag | Six1-Eya2 blk | D2 potentiator | gsp antagonist | smiles
-3%[15.4 µM] | -22 | -2.7 | -14 | -65 | -15% | O=C(c1ccc(N2CCCCC2)c([N+](=O)[O-])c1)N1CCN(S(=O)(=O)c2ccccc2)CC1
-48%[inhibitor] | 6 | 0.0 | -1 | 4 | 6% | O=C(OCn1nnc2ccccc2c1=O)c1cccs1
-76%[inhibitor] | 7 | 0.3 | 4 | 12 | 6% | COC(=O)c1ccc(/C=N/NC(=O)CC(=O)NC(C)C)cc1
24% | -13 | 12 | 0 | -5 | -17% | Cc1nn(Cc2ccc(Br)cc2)c(C)c1NC(=O)c1nn(C)cc1Cl
-9% | 3 | -0.7 | 4 | -4 | 6% | O=C(COc1ccc(S(=O)(=O)NC2CCCCC2)cc1)NCc1cccnc1
4% | -7 | 1.6 | 4 | 14 | -4% | Cc1nn(-c2ccccc2)c(C)c1P(=O)(c1ccccc1)N(C)C (configuration not stated)
